# Rango complex inh: Rango-importin beta binding inhibition; 340,000 tested, 0.031% active; Potency, µM (doses to about 92.2 µM), for inactives: at the top dose inhibition of complex formation; Rango CFP/YFP FRET sensor + importin beta, 45 min; Q14974; AID 540263; active = rising FRET ratio curve, often small or poorly fitted; inconclusive = mostly compound fluorescence or quenching in the first reads; inactive = flat curves in all reads;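 also: potency is read from the fitted curve at half-maximal effect; 0% = DMSO wells and 100% = buffer wells lacking importin beta; nearly all actives have a fitted effect of over 15% in size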
# Target sequence (Q14974 whole entry, looked up): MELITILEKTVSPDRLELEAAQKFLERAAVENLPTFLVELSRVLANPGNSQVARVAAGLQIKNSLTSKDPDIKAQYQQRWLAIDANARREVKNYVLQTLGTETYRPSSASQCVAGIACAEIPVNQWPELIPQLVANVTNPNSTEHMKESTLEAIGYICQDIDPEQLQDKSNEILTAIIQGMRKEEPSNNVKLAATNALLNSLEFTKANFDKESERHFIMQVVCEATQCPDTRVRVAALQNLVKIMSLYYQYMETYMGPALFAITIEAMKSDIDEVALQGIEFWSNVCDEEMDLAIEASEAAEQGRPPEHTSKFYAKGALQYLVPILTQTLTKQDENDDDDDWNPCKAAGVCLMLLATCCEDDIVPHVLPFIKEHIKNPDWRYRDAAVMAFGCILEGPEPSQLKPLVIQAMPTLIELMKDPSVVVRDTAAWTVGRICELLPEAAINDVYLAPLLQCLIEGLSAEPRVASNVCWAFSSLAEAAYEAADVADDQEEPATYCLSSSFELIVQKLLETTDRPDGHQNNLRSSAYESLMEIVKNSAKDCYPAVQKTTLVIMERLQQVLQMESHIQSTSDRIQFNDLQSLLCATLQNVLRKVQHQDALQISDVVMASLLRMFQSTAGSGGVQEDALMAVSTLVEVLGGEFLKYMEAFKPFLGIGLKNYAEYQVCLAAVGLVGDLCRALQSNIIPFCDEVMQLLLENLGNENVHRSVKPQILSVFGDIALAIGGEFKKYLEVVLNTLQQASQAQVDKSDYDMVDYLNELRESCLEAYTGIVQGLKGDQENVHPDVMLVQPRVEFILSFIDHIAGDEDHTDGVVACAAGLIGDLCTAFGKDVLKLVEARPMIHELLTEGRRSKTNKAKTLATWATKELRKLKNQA
#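 Inhibition scored from the CFP 486 nm/YFP 530 nm FRET ratio 45 min after adding 0.125 microM importin beta to 50 nM Rango biosensor preincubated 5 min with compound (room temperature, PBS with DTT, Tween-20, BSA). No-importin wells as positive control.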
# GLA inh pH 4.5: blocks human alpha-galactosidase A at pH 4.5; purified enzyme, 4-MU-alpha-Gal fluorescence, pH 4.5; AID 1467; activity change, negative = inhibition, % at 105 µM; 230,000 tested, under 10 active; inconclusive = small, poorly fitted or top-dose-only inhibition, or a rising curve; inactive = flat fitted curve, though single readings scatter; no compound was filed as active;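 also: 0% = full activity with enzyme and -100% = basal without enzyme; dose as in the result columns while the protocol names 77 µM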
# Rango dissoc inh: inhibitors of RanGTP-induced Rango-importin beta complex dissociation | 340,000 tested, 0.071% active | Potency, µM (highest dose often 46.1 µM), inactives show at the highest dose activity change, negative = inhibition | Biochemical FRET Rango-importin beta, RanGTP-induced dissociation | O95149+P62826; active means falling FRET ratio curve, often poorly fitted, with flat reads before Ran was added; inconclusive means other falling curves, or compound fluorescence or quenching; inactive means flat or rising ratio curve;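 also: potency is read from the fitted curve at half-maximal effect; % of control where 0% means no effect; nearly all actives have a fitted effect of over 45% in size; -100% = wells without RanGTP and RCC1; the record marks most hits as doubtful in a second field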
#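 Compounds preincubate 5 min with complex of recombinant Rango and importin beta in PBS with 1 mM DTT. Ran (0.6 uM) loaded with 2 mM GTP plus 0.2 uM RCC1 starts dissociation; FRET is recorded 45 min later.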
# miR-21 FLuc: raises the signal of a miR-21 reporter | AID 2288 | Potency, µM (top dose mostly 38.3 µM), inactives show top-dose reporter change, positive = more light | 340,000 tested, under 10 active | HeLa miR-21 FLuc reporter, luciferase, 48 h; active = well fitted rising curve with a large enough effect; inconclusive = small, poorly fitted or top-dose-only effect; inactive = no such curve, though single readings can be large or run the other way;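 also: % of control where 0% means no effect; miR-21 action dims this reporter so a rising signal means less miR-21 action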
#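 Using DMEM plus 10% FBS, HeLa miR-21-FLuc cells are incubated with test compounds (final up to about 40uM) for 48 hours; firefly luciferase signal is then imaged following reagent-mediated lysis.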
# An asterisk follows results filed as active; u = inconclusive; x = no result given; [ ] = another dose, or the depositor's remark. The list is partial; rates above refer to the full screens.
Rango complex inh	GLA inh pH 4.5	Rango dissoc inh	miR-21 FLuc	structure
-1.7%	-2	3%	-4%	OC(CNCc1cccc(Br)c1)c1ccccc1 (stereo not drawn)
3.7%	x	-7%	0%	CCOc1cc(CN2CCc3c([nH]c4ccccc34)C2)ccc1OC
3.0%	4	18%	2%	CN1CCc2c(n(CC(O)CN3C(=O)c4ccccc4S3(=O)=O)c3ccccc23)C1=O (stereo not drawn)
0.0%	x	-5%	x	CCOc1ccc2oc(C(=O)NCc3ccccc3CN3CCCC3)c(C)c2c1
3.2%	8	10%	-69%	CC(C)(C)SCCNC(=O)/C=C/c1ccccc1
1.6%	-2	2%	1%	CCCC12CN3CC(CCC)(CN(C1)C3c1ccco1)C2=O (stereo not drawn)
1.7%	7	4%	-2%	Cc1ccc(S(=O)(=O)Nc2ccc(N(C)C)cc2)cc1
-1.1%	x	-6%	-3%	CC(C)N(C(=O)Cn1cc(S(=O)(=O)CC(=O)Nc2ccccc2)c2ccccc21)C(C)C
-3.4%	x	10%	-1%	COc1ccccc1NC(=O)CCN1C(=O)c2ccccc2C1=O
u	0	u	-22%	CC(C)(C)C(=O)Oc1ccc2cc(-c3ccc4ccccc4n3)c(=O)oc2c1
-0.5%	-7	22%	15%	COc1ccc(O)c(-c2c(-c3ccc(Cl)cc3)n[nH]c2C)c1
0.0%	18	-3%	-56%	CCSc1ccc(-c2cccc([N+](=O)[O-])c2)nn1
0.5%	0	21%	19%	Cc1ccc(S(=O)(=O)c2c(COC(=O)c3ccccc3Cl)c(-c3ccccc3)nn2C)cc1
-1.5%	-17	-7%	-2%	Cc1onc(-c2c(Cl)cccc2Cl)c1C(=O)c1c[nH]c(C(=O)NCCCN2CCOCC2)c1
-0.1%	5	-11%	0%	COc1ccc(-c2nc3ccc([N+](=O)[O-])cc3[nH]2)cc1
-5.9%	6	-17%	-3%	O=C(c1nnc(Cc2ccc(Cl)cc2)o1)N1CCc2ccccc2C1
u	-21	-8%	0%	O=C(NCCCn1ccnc1)C(=O)c1c[nH]c2ccccc12
2.2%	x	-9%	-2%	CC(=O)Nc1ccc(N(C(=O)Cc2cccs2)C(C(=O)NC2CCCC2)c2ccncc2)cc1 (stereo not drawn)
-0.3%	-1	1%	3%	O=C(CSc1nncn1-c1ccccn1)Nc1cccc(Cl)c1
5.2%	2	24%	0%	CC(NCC1COc2ccccc2O1)C(=O)NCc1ccccc1 (stereo not drawn)
2.0%	1	-1%	0%	Cc1cccc2nc(-c3ccco3)c(Nc3ccc4c(c3)OCCO4)n12
4.8%	x	-1%	1%	COC(=O)c1ccc(CNC(=O)C2CCC(=O)N(Cc3ccccn3)C2)cc1 (stereo not drawn)
0.4%	x	2%	0%	COc1ccc(OCC(O)CN2CCCC2)cc1 (stereo not drawn)
-0.1%	-9	1%	-7%	CCCCN(CC)C(=O)CSc1cc(=O)n(C)c2ccccc12
u	3	u	-13%	CCOc1cc(/C=C(\CC(=O)O)c2nc3ccccc3s2)ccc1OC
u	1	-14%	-15%	Cc1ccc(/C=C/C(=O)Nc2cccc3ncccc23)o1
2.1%	-4	15%	-11%	COc1ccc(N(C)C(=O)CCS(=O)(=O)c2cccc3nonc23)c(OC)c1
-0.3%	7	0%	-5%	CC1(C)CC2(CC(C)(C(=O)CSc3nc4ccccc4s3)OC2=O)C(=O)O1 (stereo not drawn)
-3.9%	4	-18%	-12%	COC(=O)c1ccc(OCC2c3cc(OC)c(OC)cc3CCN2C(=O)C2CC2)cc1 (stereo not drawn)
u	-3	u	-35%	N#CC1=C2C=CC=CN2CC1=O

# Following part:
Rango complex inh	GLA inh pH 4.5	Rango dissoc inh	miR-21 FLuc	structure
-6.8%	-11	9%	-6%	O=C(Nc1ccccc1Oc1ccccc1)c1ccccc1F
3.6%	-7	17%	-10%	Cc1cccc2c1N(CC(=O)OC(C)C)C(=O)C2=O
-5.5%	2	-13%	-3%	COCCn1c(SCc2ccc(C(=O)OC)o2)nc2ccccc2c1=O
-3.3%	3	-12%	1%	CC(Cn1cnc2ccccc21)C(=O)O (stereo not drawn)
0.8%	0	-9%	1%	CCOc1ccccc1N1CCN(S(=O)(=O)c2ccc(F)c(F)c2)CC1
1.4%	x	7%	10%	CCOc1ccc(CN(C)C(=O)CNC(=O)Cc2cccc3ccccc23)cc1
3.3%	x	1%	x	CC1CC2OC2CC1COC(=O)C1CC2OC2CC1C (stereo not drawn)
1.1%	x	-12%	0%	O=C(CCN1C(=O)/C(=C/c2cccs2)SC1=S)Nc1cccc(O)c1
3.1%	x	1%	-5%	O=C(C1=C(O)C(=O)N(CCN2CCOCC2)C1c1ccco1)c1cc2ccccc2o1 (stereo not drawn)
u	8	-14%	-6%	Cc1ccccc1-n1nc2c(c1NC(=O)c1cc3ccccc3oc1=O)CS(=O)(=O)C2
-4.1%	-12	-13%	-9%	CCn1c(O)c(N=NC(=O)CNc2ccc(C)cc2)c2ccccc21
3.5%	x	-22%	x	Cc1cccc(OCC(=O)Nc2cc(Cl)ccc2-n2cncn2)c1C
0.2%	-8	21%	-22%	O=C(COc1ccccc1Br)NC1CCCC1
-2.1%	-2	16%	1%	O=[N+]([O-])c1cccc(-n2nnnc2CN2CCCC2)c1
-2.4%	x	0%	-8%	COc1cccc2cc(C(=O)NC(C)c3ccccc3)c(=O)oc12 (stereo not drawn)
-0.9%	x	0%	x	O=C(CCNC(=O)c1ccc(Br)cc1)NCCCN1CCOCC1
-1.6%	x	24%	x	O=C(CCOc1ccccc1)NNC(=O)c1ccccc1
2.4%	3[21.1 µM]	10%	-1%	O=C(O)c1ccc(N2C(=O)CSC2c2cccc([N+](=O)[O-])c2)cc1 (stereo not drawn)
4.1%	-3	0%	-32%	CS(=O)(=O)N1CCN(c2nc3ccccc3s2)CC1
-1.7%	x	-10%	x	CC(OC(=O)Cc1c[nH]c2ccccc12)C(=O)c1ccccc1 (stereo not drawn)
0.0%	x	-8%	x	Cc1n[nH]c(=O)c2c(NC(=O)COC(=O)c3ncc(Cl)c(Cl)c3Cl)oc(C)c12
3.9%	8	-4%	0%	CCn1c(=O)c2c(nc3n2CCN3c2ccccc2)n(C)c1=O
1.7%	-9	5%	-1%	O=c1c2ccccc2[nH]c(=S)n1CCN1CCCC1
1.4%	x	8%	x	COc1ccc(-c2noc(CCC(=O)N3CCN(c4ccccc4C(F)(F)F)CC3)n2)cc1
1.2%	1	33%	-1%	CC(C)OC(=O)CC1C(=O)NCCN1C(=S)NC(=O)c1cccs1 (stereo not drawn)
-0.5%	-11	-7%	-26%	Cc1ccc(C)c(C(=O)CSc2nnnn2C(C)C)c1
1.8%	-2	12%	-3%	Cc1ccc(S(=O)(=O)NCC(C)NS(=O)(=O)c2ccc(C)cc2)cc1 (stereo not drawn)
8.9%	-12	8%	-4%	COc1cccc(CN(C)CC(=O)Nc2ccccc2C(=O)Nc2ccccc2)c1
1.7%	-9	9%	28%	CC(C)(C)n1nnnc1C(c1ccccn1)N(Cc1ccccc1)Cc1ccc(Cl)cc1 (stereo not drawn)
1.5%	11	-6%	-3%	Cc1ccc(N2C(=O)CC(n3nc(C)cc3C)C2=O)cc1 (stereo not drawn)

# Rewritten field by field: 3 of the compounds above
COCCn1c(SCc2ccc(C(=O)OC)o2)nc2ccccc2c1=O
  Rango complex inh = -5.5%
  GLA inh pH 4.5 = 2
  Rango dissoc inh = -13%
  miR-21 FLuc = -3%

CC(Cn1cnc2ccccc21)C(=O)O (stereo not drawn)
  Rango complex inh = -3.3%
  GLA inh pH 4.5 = 3
  Rango dissoc inh = -12%
  miR-21 FLuc = 1%

CCOc1ccccc1N1CCN(S(=O)(=O)c2ccc(F)c(F)c2)CC1
  Rango complex inh = 0.8%
  GLA inh pH 4.5 = 0
  Rango dissoc inh = -9%
  miR-21 FLuc = 1%

# New compounds follow
Rango complex inh	GLA inh pH 4.5	Rango dissoc inh	miR-21 FLuc	structure
-3.7%	0	-4%	-45%	O=C(COc1ccc(/C=N/NC(=O)c2cc3ccccc3o2)cc1Br)Nc1ccccc1
-1.0%	-7	1%	0%	Cc1nn(C)c(C(=O)Nc2ccn(Cc3c(F)c(F)cc(F)c3F)n2)c1[N+](=O)[O-]
-1.4%	-10	1%	1%	CCOc1ccc(NC(=S)Nc2cc(OC)c(Cl)cc2OC)cc1
4.9%	3	1%	6%	CCOC(=O)Cc1c(C)nc2c(-c3ccc(OC)cc3)c(C)nn2c1C
u	-3	16%	17%	CCc1ccc(OCC(=O)N2c3ccccc3CCc3ccccc32)cc1
-0.8%	x	8%	x	Cc1cc(C)c2c(=O)[nH][nH]c2n1
-1.4%	x	-3%	x	COc1ccccc1CCC(=O)Nc1ccc(OC)c(S(=O)(=O)N2CCOCC2)c1
1.5%	1	1%	30%	COc1cc(NS(=O)(=O)c2ccc(C)cc2C)cc(OC)c1OC
u	-2	-9%	0%	CCOc1ccccc1NC(=S)N1CCC(NC(=O)c2ccco2)CC1
3.8%	3	-10%	-17%	CC(C)(C)OC(=O)NC(CC(=O)OCc1ccccc1)C(=O)O (stereo not drawn)
3.5%	x	12%	x	O=C(O)CC(CN1C(=O)c2ccccc2C1=O)c1ccccc1 (stereo not drawn)
x	0	x	-17%	O=C(c1ccc(F)cc1)[C@@H]1[C@@H](C(=O)c2ccccc2)[C@@]2(C(=O)Nc3ccccc32)[C@H]2c3ccccc3C=CN12
-2.7%	-2	-12%	-2%	O=C(CSc1oc(-c2ccccc2)nc1S(=O)(=O)c1ccc(F)cc1)NCC1CCCO1 (stereo not drawn)
-5.1%	-2	8%	-52%	COc1ccc(/C=N/Nc2ccccn2)c(OC)c1OC
-2.9%	x	-12%	x	O=C(NC1CC1)c1sc2cc(Cl)ccc2c1Cl
-2.0%	3	-15%	-16%	CN(c1ccc(C(=O)NCc2ccc3c(c2)OCO3)cc1)S(C)(=O)=O
-0.1%	-4	15%	-2%	Cc1ccc(S(=O)(=O)NNC(=O)c2ccoc2C)cc1
1.4%	-1	-17%	-1%	Cn1c(CN2CCOCC2)c(C#N)c2ccccc21
-2.6%	x	-15%	x	Cc1onc(-c2ccccc2)c1C(=O)N(C)CC(=O)Nc1ccc(F)c(F)c1F
-3.0%	-4	-18%	-8%	C(=N\n1cnnc1SCc1ccccc1)/c1ccco1
4.5%	x	-5%	17%	O=C(NNC1=NS(=O)(=O)c2ccccc21)c1ccc([N+](=O)[O-])cc1
3.2%	x	1%	x	C[C@H](NC(N)=O)C(=O)Nc1ccc(N2CCOCC2)c(S(=O)(=O)Nc2ccc(Cl)cc2)c1
-1.1%	-6	5%	2%	CCOC(=O)C1=C(CN2CCN(C(=O)OCC)CC2)NC(=O)NC1c1ccc2c(c1)OCO2 (stereo not drawn)
0.2%	-4	-7%	-4%	Cc1cc(C)c2nc(-c3cccnc3)cc(C(=O)Nc3ccc(S(=O)(=O)Nc4onc(C)c4C)cc3)c2c1
0.0%	12	13%	-7%	O=C(CN1CCOCC1)Nc1ccc(NC(=O)CN2CCOCC2)c(Cl)c1
1.5%	x	2%	1%	CC(C)c1ccc(NC2CCCN(C(=O)c3cnsn3)C2)cc1 (stereo not drawn)
-3.1%	x	2%	-3%	CCCN1CCN(C(=O)Cn2nc(CC)n3c(cc4sccc43)c2=O)CC1
u	x	-19%	-15%	COc1ccc(/C=N/NC(=O)c2cc3c(ccc4ccccc43)o2)cc1OC
0.2%	-3	-10%	-4%	Cc1ccc(NC(=O)COC(=O)C2=COCCO2)cc1
0.3%	-3	-4%	6%	O=C(Nc1ccc(C(=O)O)cc1)/C(=C/c1ccc2c(c1)OCO2)NC(=O)c1cccc(Br)c1
-1.6%	x	1%	x	O=C(Cc1ccc(Cl)cc1)N1CCc2ccccc2C1
3.9%	-8	-6%	-6%	COc1cccc(C2=NOC(C(=O)N3CCN(C(=O)c4ccco4)CC3)C2)c1 (stereo not drawn)
-5.6%	3	22%	-4%	C(=C\CSc1ncn[nH]1)/CSc1ncn[nH]1

# 3 entries picked at random from those above:
Rango complex inh	GLA inh pH 4.5	Rango dissoc inh	miR-21 FLuc	structure
-1.7%	x	-10%	x	CC(OC(=O)Cc1c[nH]c2ccccc12)C(=O)c1ccccc1 (stereo not drawn)
-0.1%	5	-11%	0%	COc1ccc(-c2nc3ccc([N+](=O)[O-])cc3[nH]2)cc1
0.2%	-3	-10%	-4%	Cc1ccc(NC(=O)COC(=O)C2=COCCO2)cc1
